# Screens deposited in PubChem BioAssay by Fisher Drug Discovery Resource Center.
# NPYLR7 agonist: agonists of mosquito NPYLR7 receptor, primary screen, cell-based, Aedes aegypti, calcium fluorescence, mosquito biting behavior; Aedes aegypti neuropeptide Y-like receptor 7 (NPYLR7); HEK293T NPYLR7/Galpha15, GCaMP6s calcium fluorescence; activation, % at 10 µM; hit rate 0.15% among 270,000; in the data active means activation above about 40%;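 further: 0% = vehicle and 100% = reference agonist at the receptor; some compounds past the cut are filed as inactive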
# NPYLR7 agonist max-min: further read-out of NPYLR7 agonist, marked with its call; activation, %; measured here: Max-Min RFU normalised activation; some inactives read as strong as hits;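 span of the calcium signal over five minutes; 0% = vehicle and 100% = native peptide agonist; compound fluorescence can raise it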
# The depositor's hits bear a star; & = joins results of further samples.
# The line under a structure holds: NPYLR7 agonist	NPYLR7 agonist max-min
> COC(=O)CCC(=O)NCc1ccc(-c2ncc(-c3cc(OC)ccc3OC)[nH]2)cc1
    15	21
> COc1cccc(N2CC(C(=O)Nc3cc(C)nn3-c3nc4c(c(=O)[nH]3)CCC4)CC2=O)c1 (centres undefined)
    8	3
> N#Cc1c(Nc2ccccc2)ccnc1SCc1ccccc1
    4	3
> Cc1cc(C)c2c(C(=O)NCC3CCN(C)C3)cc(C)nc2c1 (centres undefined)
    3	0
> COCCC1(C(=O)O)CCCN(c2ncnc3ccsc23)C1 (centres undefined)
    0	-5
> CCOC(=O)c1ccc(NC(=O)N2CCN(CC(OCc3ccc(C(F)(F)F)cc3)c3ccc(Cl)cc3)CC2)cc1 (centres undefined)
    31	20
> CCOC(=O)CC(=O)CSc1ccc2nnc(-c3ccc(OC)c(OC)c3)n2n1
    -1	16
> CC(c1cccnc1)N(C)C(=O)c1ccc(Cn2ccnc2)o1 (centres undefined)
    22	14
> COc1ccc(C)cc1CS(=O)Cc1cccc(C(=O)N(C)C)c1 (centres undefined)
    -2	-3
> O=C(O)C1CC(=O)N(Cc2nc3c(s2)CCCC3)C1 (centres undefined)
    -1	-6
> CO/N=C(/C(=O)Nc1ccc(C(C)(C)C)cc1)c1csc(NC=O)n1
    -6	-15
> CC(C)Cc1noc(C2CCCN(C(=O)c3cc(C(C)C)on3)C2)n1 (centres undefined)
    23	11
> CC(C)NC(=O)C1(C)CCN1C(=O)C1(c2ccccc2)CCCC1 (centres undefined)
    14	19
> CCN(Cc1nccn1Cc1ccc(Cl)c(Cl)c1)C(=O)C(C)C
    10	14
> CSCCCN1C(=O)C(=Cc2ccccn2)SC1=S
    2	2
> COc1ccc(-n2ncc(Oc3ccc4c(c3)CCC4)c(Nc3ccc(C(=O)NC4CC4)cc3)c2=O)cc1
    5	11
> CC(C)CCN(CC(=O)N1CCc2sccc2C1c1ccc(Cl)cc1Cl)C(=O)C(C)Cl (centres undefined)
    17	14
> C=CCn1c(=NC(=O)c2cc(OC)cc(OC)c2)sc2cc(S(C)(=O)=O)ccc21
    8	2
> Cc1nn(CC(C)C)c(Cl)c1CNCCC1CCCO1 (centres undefined)
    9	6
> C=CCN1C(=O)NC(c2cccc(Oc3ccccc3)c2)C2=C1CN(Cc1ccccn1)C2=O (centres undefined)
    8	9
> COc1ccc(C(=O)N2CCC3(CC2)OCC(C(=O)NC(C)c2ccccc2)N3C(=O)c2ccccc2C)cc1 (centres undefined)
    -1	15
> O=S(=O)(c1cccc(NCc2noc(C3CC3)n2)c1)C1CCCC1
    2	12
> Cc1c(Cl)cccc1-n1ccc2nc(N3CCCCC3)ncc2c1=O
    8	5
> CC(=O)Nn1ccc2c(cnc3ncnn32)c1=O
    3	3
> CC(C)(C)n1nc2c(c1NC(=O)C(c1ccccc1)c1ccccc1)CSC2
    1	-1
> COc1ccc(CNC(=O)c2nc3ccc(Br)cc3c(=O)[nH]2)cc1O
    7	5
> O=C(O)[C@H]1C[C@H](C(=O)NCc2ccncc2)CN(CCC(F)(F)F)C1
    -3	-4
> Cc1cccc(N2N=C(C(=O)N(CC(F)(F)F)C(C)C3CC3)CCC2=O)c1 (centres undefined)
    -4	-4
> COc1ccccc1/C=C/CN1CCNC(=O)C1CC(=O)N(C)C (centres undefined)
    0	-4
> CC(C)=CC(=O)NCc1ccnc(OCC2CC2)c1
    3	2
> COCCCNC(=O)c1c(C)noc1-c1ccccc1Cl
    26	10
> O=c1oc2ccc([N+](=O)[O-])cc2cc1-c1csc(Nc2ccc(Cl)cc2Cl)n1
    -12	-13
> CCc1noc(CN(C)C(=O)NC(CC(C)(C)C)c2ccccc2)n1 (centres undefined)
    6	4
> CCNC(=O)C1(C)CCCN1Cc1ccccc1 (centres undefined)
    2	1
> CCN(CC1CCN(CCc2ccccc2C)CC1)C(=O)c1ccco1
    12	8
> CN(Cc1ccc(C(F)(F)F)cc1)Cn1nc(-c2ccco2)oc1=S
    4	2
> CCN(CC1CCN(CCc2ccccc2C)CC1)C(=O)/C=C/c1ccco1
    2	-8
> O=C(Cn1nc2c(c1NC(=O)C1COc3ccccc3O1)CSC2)NCc1ccco1 (centres undefined)
    -6	1
> Cc1ccccc1C(=O)N1CCC(C(NC(=O)c2ccc3c(c2)OCO3)C(=O)NC2CC2)CC1 (centres undefined)
    8	12
> Cc1nc(-c2ccccc2)nc(N2CCN(C(=O)c3ccco3)CC2)c1Cc1ccc([N+](=O)[O-])cc1
    28	24
> CCCCCC(=O)N(CC(=O)Nc1cc(-c2ccccc2)nn1-c1ccc(Cl)c(Cl)c1)C(C)C
    9	20
> Fc1cccc(CN2CCCC3(CCN(CCCC(F)(F)F)C3)C2)c1F (centres undefined)
    5	1
> CS(=O)(=O)c1ccc(CNC(=O)c2ccc(-c3cc(-c4cccc(C(F)(F)F)c4)n[nH]3)cc2)cc1
    -2	2
> O=C(O)Cc1cc(C2CCN(C(=O)C3(c4ccccc4)CC3)CC2)n[nH]1
    3	1
> CN(Cc1cc(-c2cccs2)n[nH]1)C(=O)c1cc(=O)n(C)c(=O)n1C
    0	-1

# Reformatted with each value named: two of the compounds above
CCc1noc(CN(C)C(=O)NC(CC(C)(C)C)c2ccccc2)n1 (centres undefined)
  NPYLR7 agonist = 6
  NPYLR7 agonist max-min = 4

CCNC(=O)C1(C)CCCN1Cc1ccccc1 (centres undefined)
  NPYLR7 agonist = 2
  NPYLR7 agonist max-min = 1

# Compounds from the list above that contain an NH in an aromatic ring (6):
# The line under a structure holds: NPYLR7 agonist	NPYLR7 agonist max-min
> COC(=O)CCC(=O)NCc1ccc(-c2ncc(-c3cc(OC)ccc3OC)[nH]2)cc1
    15	21
> COc1cccc(N2CC(C(=O)Nc3cc(C)nn3-c3nc4c(c(=O)[nH]3)CCC4)CC2=O)c1 (centres undefined)
    8	3
> COc1ccc(CNC(=O)c2nc3ccc(Br)cc3c(=O)[nH]2)cc1O
    7	5
> CS(=O)(=O)c1ccc(CNC(=O)c2ccc(-c3cc(-c4cccc(C(F)(F)F)c4)n[nH]3)cc2)cc1
    -2	2
> O=C(O)Cc1cc(C2CCN(C(=O)C3(c4ccccc4)CC3)CC2)n[nH]1
    3	1
> CN(Cc1cc(-c2cccs2)n[nH]1)C(=O)c1cc(=O)n(C)c(=O)n1C
    0	-1

# (further entries)
# The line under a structure holds: NPYLR7 agonist	NPYLR7 agonist max-min
> COc1cc(-c2c(NC(=O)C(C)C)oc3c(C)cccc3c2=O)cc(OC)c1OC
    8	3
> CCOC(=O)C1(CCCc2ccccc2)CCCN(C(=O)c2ccc(COC)o2)C1 (centres undefined)
    1	-1
> CS(=O)(=O)Nc1cccc(Nc2cc3c(cn2)cc(-c2ccccc2)n3Cc2ccccc2)c1
    11	16
> O=C(Nc1nc(-c2ccccc2)cs1)c1cc(C2CC2)n(C2CCS(=O)(=O)C2)n1 (centres undefined)
    1	-2
> CN(C)C(=O)CN1CCN(c2nc(C(=O)NCCC(F)(F)F)cs2)C1=O
    -1	-2
> CCN(CC(C)C#N)C(=O)NC1CC1 (centres undefined)
    18	13
> O=C(O)c1ccc2c(c1)sc1[n+]2CCS(=O)(=O)N1
    1	1
> CCCCCCCCC(=O)N(CCOC)CC(=O)N1CCc2sccc2C1c1ccc(F)cc1 (centres undefined)
    11	13
> CC(=O)Oc1c(-c2ccc(NC(=O)c3ccco3)cc2)c(-c2ccccc2F)nn1-c1cccc(C)c1C
    21	19
> CSc1ccc(S(=O)(=O)Nc2ccccc2C(=O)OC2CCCC2)cc1
    2	8
> CCOC(=O)Cn1cnc2c(nnn2Cc2ccc(C)cc2)c1=O
    2	3
> CC(=O)N1CCN(C(=O)C=Cc2cn(-c3ccccc3)nc2-c2ccccc2)CC1
    -1	1
> COc1ccc(NC2CC(=O)N(c3cccc(OC)c3)C2=O)cc1 (centres undefined)
    -8	-17
> Cc1cccc(-n2c(Cc3ccccc3)nnc2SCc2ccc(C(=O)NC3CC3)cc2)c1
    -1	-13
> COc1cccc(NC(=O)Cn2c(-n3nc(C)cc3C)nc(C)c(C)c2=O)c1
    -2	4
> Cc1ccsc1CN(C)CC(=O)c1c(N)n(C)c(=O)n(C)c1=O
    9	13
> O=C(COc1cccc2ccccc12)OC1CCS(=O)(=O)C1 (centres undefined)
    1	-2
> COCC(C)Nc1nc(-c2ccc(C)c(C)c2)cs1 (centres undefined)
    -3	-5
> COc1ccc(C2(C)NN=C3Oc4ccccc4N32)cc1 (centres undefined)
    3	2
> CCOCC(=O)OC(c1ccccc1)c1ccccc1
    6	5
> CON1C2CCCCC2N(OC)C2(O)c3ccccc3C(=O)C12O (centres undefined)
    1	39
> CCOc1ccc(C(=O)OCC(=O)c2ccccc2)cc1OCC
    -2	-4
> CCC(C)N(CC(=O)N(CCc1ccc(OC)c(OC)c1)Cc1ccco1)C(=O)Nc1ccccc1Br (centres undefined)
    -2	-13
> O=C(C=Cc1ccc2c(c1)OCO2)c1ccc(Cl)cc1Cl
    5	3
> Cc1ccccc1CC(=O)N(CC#N)C1CCCC1
    -2	-3
> Cc1[nH]cnc1CN1CCc2[nH]nc(-c3ccc(-c4ccccc4)cc3)c2C1
    -3	-7
> O=C(CN1CCN(CC2CC2)C(CCO)C1)NC1CCCCCCC1 (centres undefined)
    7	7
> CCOc1cn(C)c(C(=O)NCc2cccs2)cc1=O
    5	2
> Cc1ccc(N(CCCCN2C(=O)c3ccccc3C2=O)C(=O)/C=C/c2cccc([N+](=O)[O-])c2)cc1
    -5	-13
> CCN1C(=O)NC(c2cccc(Oc3ccccc3)c2)C2=C1CN(C(Cc1ccccc1)C(=O)NCCc1ccc(OC)c(OC)c1)C2=O (centres undefined)
    -3	3
> CC(C)(C)OC(=O)NCC1CCCCN1C(=O)c1cc(-c2ccccc2F)on1 (centres undefined)
    0	-1
> C=CCc1cc([C@H]2N[C@@](C)(C(=O)OC)[C@H]3C(=O)N(C)C(=O)[C@@H]23)ccc1OC
    28	15
> O=C(c1cccs1)N(Cc1ccco1)Cc1c(-c2ccc(F)cc2)noc1N1CCOCC1
    9	11
> CCOc1ccc(S(=O)(=O)N2CCN(CCO)CC2)c2ccccc12
    -4	-6
> NC1CCCN(C(=O)c2cc(=O)[nH]c3cc(F)ccc23)CC1 (centres undefined)
    6	3
> O=C(NC1C=CS(=O)(=O)C1)c1ccc2[nH]c3c(c2c1)CCCC3 (centres undefined)
    0	-3
> O=C1OCCC1N1CCCC(c2cc(C(F)(F)F)n[nH]2)C1 (centres undefined)
    3	1
> CCCc1c(-c2ccccc2)ncn1C1CCN(CC(=O)OC)CC1
    16	8
> COC(=O)C1CCN(C(=O)c2ccc(-c3cc(-c4ccc(N5CCCCC5)cc4)n[nH]3)cc2)CC1
    -2	1
> CC12CN3CC(C)(CN(C1)C3c1ccc(O)cc1)C2O (centres undefined)
    7	0
> COc1ccc(CN2CCN(Cc3cnc(S(C)(=O)=O)n3CC(C)C)CC2=O)cc1
    6	1
> OCC1(Cc2cccc(C(F)(F)F)c2)CCN(c2cnc3ccccc3n2)CC1
    12	8
> O=C(Nc1cc(-c2onc3c2CCCC3)cc(C(F)(F)F)c1)C1=Cc2cc(Cl)ccc2OC1
    19	20
> CC1C(=O)N(c2cccc(F)c2)CCN1C(=O)c1ccccc1Cl (centres undefined)
    -7	-6
> COc1cc(C=NN2C(=O)CSC2=S)cc(OC)c1O
    -3	-8
> COC(=O)CCC/C=C1/SCC(NC(=O)c2ccccc2)/C1=N/O (centres undefined)
    2	1
> CCc1ccc(Nc2nnc(SCC(=O)N(C)CCC#N)s2)cc1
    0	1
> O=S(=O)(Cc1ccccc1Cl)NCCCN1CCN(c2ccccc2)CC1
    -9	-10
> Cn1nc(C2CC2)cc1NC(=O)C1(C)CCN1C(=O)c1ccc(C(C)(C)C)cc1 (centres undefined)
    6	5
> Cc1cc(C(=O)CN2CCN(c3ccc(O)cc3)CC2)c(C)n1C1CCS(=O)(=O)C1 (centres undefined)
    4	0
> COCCNCC(=O)N1CCc2sccc2C1COc1ccc(Cl)cc1 (centres undefined)
    23	30
> Cn1cc(C2CC2C(=O)NS(=O)(=O)c2ccc(F)cc2F)cn1 (centres undefined)
    14	6
> CCCCOc1ccc(/C=N\Nc2cc(Cl)nc(C)n2)cc1
    2	0
> CC(NCC(O)COC12CC3CC(CC(C3)C1)C2)c1ccccc1 (centres undefined)
    17	12
> O=C(c1ccc(C(F)(F)F)cc1)N1CCN(C(C(=O)N2CCCC2)C2CCCC2)CC1 (centres undefined)
    -9	-5
> CC(C)Oc1ccc(C(O)=C2C(=O)C(=O)N(CCN(C)C)C2c2ccncc2)cc1 (centres undefined)
    4	1
> Clc1ccc(Oc2ccccc2)c(NC2=NCCC2)c1
    4&-1&8	1&-5&3
> CCn1c(C2CC2)nn(CN(C)Cc2cc(Br)ccc2OC)c1=S
    8	6
> OCc1ccc(-c2nccn2C2CCN(Cc3ccccc3)C2)o1 (centres undefined)
    5	-2
> CCOc1ccc(-n2c(SCC(=O)c3ccccc3)nc3c(c2=O)SCC3)cc1
    0	43

# (further entries)
# The line under a structure holds: NPYLR7 agonist	NPYLR7 agonist max-min
> Cc1noc(-c2ccco2)c1C(=O)NCC1COC(C)(C)O1 (centres undefined)
    10	6
> Cn1c(CSc2nc3ccccc3s2)n[nH]c1=S
    -4	-7
> OCc1csc(N2CCC(CO)(Cc3ccccc3Cl)CC2)n1
    -2	-7
> COc1ccccc1CCC(=O)N1CCN(C)C2(CCN(C)CC2)C1
    -2	18
> CCCCc1ccc(S(=O)(=O)Nc2nccnc2-c2ccc(CNCCc3c[nH]c4ccccc34)cc2)cc1
    -2	-9
> O=C(c1ccc(=O)[nH]c1)N1CC=C(c2ccccc2)CC1
    2	1
> CCOc1ccc(-n2cc(C(=O)O)c(=O)c3cc(F)c(F)c(F)c32)cc1F
    0	-1
> CN(C)n1ccc2c(nnc3c(-c4ccccc4)cnn32)c1=O
    22	16
> Cc1ccc(CN(Cc2ccccc2)C(=O)CN(CC(C)C)C(=O)Nc2ccc(C)c(Cl)c2)o1
    2	15
> COc1ccc(-c2cc(N)ccn2)c(C)c1
    -5	-3

# Some of the compounds tested; count on the stated rates, not on these rows.
